S aureus helic = S. aureus DNA helicase inhibition; purified S. aureus helicase, fluorescence unwinding assay; about half of the hits fall short of the stated cut; inhibition, %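 (tested at about 80 µM)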; 0.05% of 120,000 active;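 active = both duplicates at 50% or more, or one of them with a favoured structure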;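 also: 0% = mean of negative control wells and 100% = mean of positive control wells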
MgrA-DNA mod = alters Staphylococcus aureus MgrA binding to DNA; fluorescence polarization; inhibition, %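 (about 10 µg/mL by stock and volumes)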; 0.13% of 84,000 active; AID 602314;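 active = above 50% in either of two replicates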;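 also: 0% = protein plus DNA without compound and 100% = DNA alone without protein; higher means less MgrA bound to DNA so lower polarization; one replicate is shown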
* marks the source's active call; other numbers are inactive results; . = no result given. These rows are one share of the data. The share of hits here may be higher or lower than overall.

SMILES	S aureus helic	MgrA-DNA mod
CN1C2CC(OC(=O)[C@H](CO)c3ccccc3)CC1C1OC12 (stereo partly drawn)	.	2.1
CN1CCN(C(=O)c2cc(Oc3c(F)c(F)c(F)c(F)c3F)cc(C(=O)N3CCN(C)CC3)c2)CC1	-22.0	.
COc1ccc(-c2nc(CN3C(=O)CSc4nc(C)cc(C)c43)c(C)o2)cc1OC	4.0	.
CCCN1CCN(C(=O)c2cccc3c2C(=O)N(Cc2cccnc2)C3)CC1	21.0	.
Cc1c(CC#N)ccc2ccccc12	.	-1.5
S=C(NCC1CCCO1)N/N=C/c1ccco1 (stereo not drawn)	.	-0.2
CCOc1ccccc1C1CC(=O)Nc2c1ccc1ccccc21 (stereo not drawn)	11.0	.
COC(=O)c1sc(-c2cccs2)cc1NS(=O)(=O)c1cn(C)cn1	-31.0	.
Cc1cc(C(=O)OCC(=O)Nc2ccccc2)c(C)n1-c1ccccc1	17.0	0.7
CC1CCN(C(=O)COC(=O)c2ccc(I)cc2)CC1	10.0	-0.8
CCOC(=O)c1c(CN2CCN(CC#N)CC2)n(-c2ccccc2)c2cc(Br)c(OC)cc12	.	1.5
O=C1N=c2ccc(Br)cc2=C1c1sc(=S)n(NS(=O)(=O)c2ccccc2)c1O	.	0.9
ClCc1cn(-c2ccccc2)nc1-c1ccccc1	-15.0	-2.0
c1ccc(-c2cc(NCCN3CCCCC3)c3ccccc3n2)cc1	.	0.5
CCc1cccc(CC)c1N=C1SCCN1CCO	7.0	.
C/C(=N\NC(=O)C1CC1)c1ccc(-n2ccnc2)cc1	-12.0	.
Cc1ccc(C)c(C(=O)OCC(=O)NCc2ccco2)c1	-5.0	1.5
O=C(CSc1nc(-c2cccs2)cc(C(F)(F)F)n1)OCCCc1ccccc1	16.0	-0.4
O=C(NCCc1ccccc1)c1cc2c(s1)CS(=O)(=O)C2	0.0	.
CC(C)c1ccc(NC(=O)N2CCC(c3nc4ccccc4o3)CC2)cc1	-3.0	1.7
Clc1ccc(Oc2nc(Oc3ccc(Cl)cc3)nc(N3CCSCC3)n2)cc1	.	-0.1
COc1ccc(CCC(=O)NCc2cccs2)cc1	-14.0	.
Cc1nn(-c2ccccc2)c(Cl)c1C(=O)NCCSCc1ccco1	-2.0	.
COC(=O)CN1C(=O)COc2cc(S(=O)(=O)NC3CCCC3)ccc21	-4.0	0.1
COc1ccc(-c2nnc(NC(=O)c3ccc4c(c3)OCO4)s2)c(OC)c1	7.0	.

6 entries from above, ordered by their value in MgrA-DNA mod, smallest number first.
SMILES	S aureus helic	MgrA-DNA mod
Cc1c(CC#N)ccc2ccccc12	.	-1.5
S=C(NCC1CCCO1)N/N=C/c1ccco1 (stereo not drawn)	.	-0.2
COC(=O)CN1C(=O)COc2cc(S(=O)(=O)NC3CCCC3)ccc21	-4.0	0.1
c1ccc(-c2cc(NCCN3CCCCC3)c3ccccc3n2)cc1	.	0.5
O=C1N=c2ccc(Br)cc2=C1c1sc(=S)n(NS(=O)(=O)c2ccccc2)c1O	.	0.9
Cc1ccc(C)c(C(=O)OCC(=O)NCc2ccco2)c1	-5.0	1.5

(list continues)
SMILES	S aureus helic	MgrA-DNA mod
Cc1cnc(C(=O)OC(C)C(=O)N(C)c2ccccc2)cn1 (stereo not drawn)	3.0	.
CC1CCCC(C)N1C(=O)CSc1nccn1C (stereo not drawn)	5.0	-3.8
O=C(O)Cn1c(=O)oc2cc(S(=O)(=O)NC3CCCCC3)ccc21	6.0	.
O=P(O)(CN1CCCCCC1)CN1CCCCCC1	2.0	6.1
CC(=O)OCCNc1cc(Cl)c2noc3c2c1C(=O)c1ccccc1-3	-126.0	.
NC(=O)c1cc(NC(=O)CCS(=O)(=O)c2ccccc2Cl)cc(C(N)=O)c1	0.0	.
Cc1ccc(N=Cc2c(C)[nH]c3ccccc23)cc1C	-1.0	-1.4
COc1ccc(C)cc1-n1c(C)nc2cc(C(=O)NCC(OC)OC)ccc21	-10.0	.
CCOC(=O)c1cc(-c2ccc(C)cc2)n(CCCC(=O)Nc2cccc(CC)c2)c1	7.0	-0.1
COC(=O)c1c(N2C(=O)C=CC2=O)sc2c1CCC(C)C2 (stereo not drawn)	-1.0	.
O=c1[nH]ncc(Nc2ccc(F)cc2)c1Cl	-12.0	.
O=C(NCCCN1CCOCC1)c1cccc(S(=O)(=O)N2CCCC2)c1	-6.0	.
Cc1c(C(=O)Nc2ccccc2Cl)oc2ccc(S(=O)(=O)N3CCOCC3)cc12	2.0	.
N#C/C(=C\c1cccc(Cl)c1)c1nc(-c2cc3cc(Br)ccc3oc2=O)cs1	.	-1.6
CN(C)/C=N/c1nnc(C(F)(F)F)s1	.	1.2
CC1Cc2ccccc2N1S(=O)(=O)c1cccc(C(=O)NCCCn2ccnc2)c1 (stereo not drawn)	-12.0	.
CC1CCN(c2ccc([N+](=O)[O-])cc2[N+](=O)[O-])CC1	.	-0.2
Cc1cc2nc3s/c(=C/c4cccn4-c4ccc([N+](=O)[O-])cc4)c(=O)n3c2cc1C	.	4.6
O=C(NCc1ccccc1)C1CCCN1S(=O)(=O)c1ccc(Cl)cc1 (stereo not drawn)	7.0	-1.4
CCn1cc(NC(=O)Nc2ccccc2C(=O)OC)c(C(N)=O)n1	6.0	4.8
Cc1cc(C(=O)OCC(=O)N(C)Cc2ccccc2)c(C)o1	-39.0	1.2
CCOC(=O)CSC(=S)Nc1ccc(C)cc1C	.	0.7
Cn1c(SC2CCCCC2=O)nnc1-c1ccncc1 (stereo not drawn)	10.0	.
COc1ccc(-c2nnc(C3CCN(S(=O)(=O)c4cc(Br)cc5c4N(C(C)=O)CC5)CC3)o2)cc1	19.0	.
O=C(Nc1cccc(-n2cnnn2)c1)c1ccccc1	-2.0	0.9
S=c1nc[nH]c2c1sc1ncccc12	-10.0	.
Cc1ccc(NC(=O)CC(C(=O)O)N2CCN(C)CC2)cc1Cl (stereo not drawn)	-17.0	.
Cn1c(Cn2c(=O)sc3ccccc32)nnc1SCC(=O)NCc1ccccc1Cl	17.0	2.0
O=C(CSc1ccc(Cl)cc1)N1CCCc2ccccc21	0.0	.
CNC(=O)/C=C/c1cccc(C(F)(F)F)c1	16.0	.
COC(=O)c1cc(OC)c(OC)cc1NC(=O)Cc1ccc(OCc2c(C)noc2C)cc1	5.0	.
CCOC(=O)c1sc(=N)n(-c2ccc(OC)cc2)c1C	-13.0	.
CCc1ccc(-c2cc(C)no2)cc1S(=O)(=O)N(C)C1CCCCC1	11.0	.
CCOC(=O)c1cc(-c2ccco2)nc2c1c(C)nn2-c1ccccc1	5.0	.
O=C(NC1CCCc2ccccc21)c1ccc(S(=O)(=O)NCc2ccco2)cc1 (stereo not drawn)	-3.0	.
COc1cc(C=Nc2ccc(Br)c(Cl)c2)ccc1O	-3.0	-1.2
CC(C)(C)c1cc(CCC#N)cc(C(C)(C)C)c1O	-39.0	.
CSCc1cc(=O)[nH]c(C)n1	.	-0.2
CCOC(=O)c1sc(-c2cnccn2)nc1C	.	-2.1
COC(=O)c1cccc(NS(=O)(=O)c2ccccc2)c1	.	1.4
CNc1cc(F)nc(F)n1	-35.0	.
Cc1cc(-c2ccccc2)nc(SC(C)C(=O)N(C)C)n1 (stereo not drawn)	-15.0	.
CCOC(=O)c1c(SC)[nH]c2ccc(Cl)cc2c1=O	.	-1.5
CN(c1ccc(C(=O)Cn2nc(C(=O)O)c3ccccc3c2=O)cc1)S(C)(=O)=O	-4.0	.
CCCC(C(=O)NC1CCCC1)N(C(=O)Cn1nnc(-c2ccc(C)o2)n1)c1ccccc1 (stereo not drawn)	6.0	0.0
Cc1ccc(/C=C2\CCc3ccccc3C2=O)o1	.	8.6
Cc1nc(SC(C)C(=O)NCc2ccc3c(c2)OCO3)nc(C)c1C (stereo not drawn)	-12.0	.
NC(=O)Cn1nnc2ccccc2c1=O	7.0	.
O=C(CCn1nc(-c2ccccc2)c2ccccc2c1=O)N1CCCCC1	3.0	-1.9
CCOc1cc(NS(=O)(=O)c2ccc(OC)cc2)c(OCC)cc1NC(=O)CC	3.0	-2.0

6 structures from above, sorted by heavy-atom count, ascending:
SMILES	S aureus helic	MgrA-DNA mod
CSCc1cc(=O)[nH]c(C)n1	.	-0.2
NC(=O)Cn1nnc2ccccc2c1=O	7.0	.
CCOC(=O)c1sc(-c2cnccn2)nc1C	.	-2.1
CCOC(=O)c1sc(=N)n(-c2ccc(OC)cc2)c1C	-13.0	.
CCc1ccc(-c2cc(C)no2)cc1S(=O)(=O)N(C)C1CCCCC1	11.0	.
O=C(CCn1nc(-c2ccccc2)c2ccccc2c1=O)N1CCCCC1	3.0	-1.9

The list goes on.
SMILES	S aureus helic	MgrA-DNA mod
CCOC(=O)Nc1ccc2c(c1)Nc1ccccc1S2	6.0	0.7
N#CCCS(=O)(=O)c1ccccc1F	.	1.9
Cc1ccc(C(=O)N(C)CC(=O)Nc2ccc(F)c(F)c2F)o1	-10.0	.
N#CC1(S(=O)(=O)c2ccc(Cl)cc2)CC1	9.0	-5.6
CC1=CCC(C(=O)Nc2nccs2)C(C(=O)Nc2nccs2)C1 (stereo not drawn)	10.0	1.5
O=C(C1CC(c2c(F)cccc2Cl)=NO1)N1CCCC1 (stereo not drawn)	3.0	-0.8
Cc1nn(C)c(C)c1NC(=O)c1ccccc1NS(C)(=O)=O	.	-1.9
c1csc(C2SCCS2)c1	-22.0	.
Cc1cc(=O)[nH]c(N/N=C/C2CC=CCC2)n1 (stereo not drawn)	-22.0	.
COc1ccc(-n2nc(C)cc2N)cc1	14.0	-3.4
O=C(O)c1cccc(-c2ccc(/C=C3/SC(=O)N(c4ccccc4)C3=O)o2)c1	8.0	5.2
CC1(C)OCC(COC(=O)/C=C/c2ccc(F)cc2)O1 (stereo not drawn)	9.0	.
O/N=C/c1cc[n+](C/C=C\c2ccccc2)cc1	-14.0	0.5
COC(=O)CCCCC1=C(NC(C)=O)C(NC(=O)c2ccccc2)CS1 (stereo not drawn)	-1.0	-1.8
COc1cccc(-n2c(=O)c3c4c(sc3n(CC(=O)NC3CCCC3)c2=O)CCCC4)c1	7.0	.
O=C(CSC1=NCCN1)Nc1cc(C(F)(F)F)ccc1Cl	3.0	1.1
COc1ccc(Nc2c(-c3cccc(O)c3)nc3ncccn23)cc1	3.0	.
CCN(CC)C(=O)Cn1nnc(-c2ccccc2)n1	-5.0	0.5
Cc1coc(NC(=O)CSc2nc(-c3ccc4c(c3)OCO4)cc(C(F)(F)F)c2C#N)n1	-9.0	2.2
OCC1CCCN(Cc2ccc(F)cc2)C1 (stereo not drawn)	0.0	-0.9
CN(C)[C@@H]1C(=O)C(C(=O)NCN2CCCC2)=C(O)[C@@]2(O)C(=O)C3=C(O)c4c(O)cccc4[C@@](C)(O)C3CC12 (stereo partly drawn)	.	2.7
Cc1ccc2nc(NC(=O)C3CCCCC3)sc2c1	14.0	.
O=C(c1ccccc1)c1cc(Cl)ccc1N=Cc1cccs1	8.0	-3.2
Cc1cccc(CSc2ccc(-c3ccco3)nn2)c1	11.0	.
O/N=C1\CC(c2ccccc2)OC12CCCCC2 (stereo not drawn)	9.0	.
CCCCN(C)c1ncnc2onc(-c3ccc(Cl)cc3)c12	-18.0	.
CCn1cnc2ccccc21	-5.0	.
O=C(NCCSc1c[nH]c2ccccc12)c1ccc2c(c1)OCO2	-13.0	.
CC(C)c1ccc(-c2nnn(CC(N)=O)n2)cc1	9.0	-0.4
O=C(N/C(=C\c1ccc(-c2ccccc2)o1)C(=O)N1CCOCC1)c1ccccc1	18.0	.
Cc1ccc(CN(C)CC(=O)NC(C)c2ccccc2)cc1 (stereo not drawn)	7.0	.
O=c1c2ccccc2[nH]c(=S)n1CCN1CCCCC1	15.0	2.3
CN(C)c1cc(-c2ccccc2)nc(N)n1	11.0	.
S=c1[nH]nc(-c2ccccc2Cl)o1	-3.0	.
COc1ccc(CN2CCC(N3CCN(CCO)CC3)CC2)cc1OC	11.0	.
COc1cccc(CC(=O)N(Cc2ccccc2)Cc2ccco2)c1	-7.0	.
CC(=O)Nc1ccc(SCc2nc3ccccc3c(=O)n2CC#N)cc1	-9.0	.
Cc1cccc(N2CCC(N=CN(CCO)CCO)=N2)c1	6.0	.
CCOC(=O)C1SC(c2ccccc2)C(C#N)C1(O)c1ccccc1 (stereo not drawn)	-10.0	.
COc1ccc(CC2=C(C)C(=O)N(c3ccc(OC)cc3)C2=O)cc1	11.0	-1.9
Cc1ccc(OCC(=O)NNC(=O)NC(=O)c2ccccc2Cl)c2c1CCC2	.	0.4
COC1(OC)N=C(N)C2(C#N)C(c3ccccc3)C12C#N (stereo not drawn)	9.0	.
CCOC(=O)c1c(-c2ccccc2)csc1/N=C/c1c(C)[nH]n(-c2ccc(C)cc2)c1=O	.	-0.1
OCc1ccccc1NC(=S)NCc1ccccc1	-5.0	.
COc1cc(/C=c2\sc3nc4ccccc4n3c2=O)ccc1OCc1c(F)cccc1Cl	.	0.6
CN(C(=O)c1cccnc1Cl)C1CCS(=O)(=O)C1 (stereo not drawn)	-3.0	0.2
Nc1c(-c2ccccc2)cnn1C1CCS(=O)(=O)C1 (stereo not drawn)	.	2.7
C=CCNC(=O)c1ccc(N2C(=O)c3ccccc3C2=O)cc1	-3.0	1.2
O=C(Cn1ncc2c(=O)oc3ccccc3c21)NCC1COc2ccccc2O1 (stereo not drawn)	2.0	1.7
O=C(Nc1ccccc1C(F)(F)F)c1cc2ccccc2oc1=O	.	-0.9
